# Compound activity as filed in PubChem.
# FGF22 binding: binders of recombinant human FGF22 by thermal shift; calls only at 9.99 µM; SYPRO orange fluorescence; percent of sucrose octasulfate shift, DMSO zero; hit rate 1.5% among 340,000; Q9HCT0; AID 651658;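 active means melting point raised past a set limit in the mean and every replicate; inconclusive means no clear call; three in four hits are not shown here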
# Target sequence (Q9HCT0 whole entry, looked up): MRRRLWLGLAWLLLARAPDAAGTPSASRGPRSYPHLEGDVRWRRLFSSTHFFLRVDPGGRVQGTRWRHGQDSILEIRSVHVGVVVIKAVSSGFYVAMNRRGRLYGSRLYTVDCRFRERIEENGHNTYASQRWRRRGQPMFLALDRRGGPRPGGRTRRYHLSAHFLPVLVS
# E coli growth: blocks Escherichia coli growth | OD600, 23 h; hits give low values | OD600 absorbance (test concentration not listed) | hit rate 0.21% among 330,000 | AID 1053175;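 active means OD600 absorbance below the run mean of sample wells minus 3.6 SD, in any replicate, cut at about 0.56 in these data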;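 further: stock transfer was 300 nL into about 60 µL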
# RanGTP-Impb inh: disruptors of Ran-importin-beta complex formation – biochemical, FRET, CFP-Ran, YFP-importin-beta, homogeneous, primary screen; inhibition, % (test concentration not listed); hit rate 1.1% among 300,000; cell-free CFP-Ran/YFP-importin-beta FRET ratio; AID 2216;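 active means most replicates above 15%; inconclusive means exactly half above 15%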;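 further: 0% = DMSO wells and 100% = Ran loaded with GDP instead of GTP; wells of about 40 µL received 100 nL stock; the first replicate is given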
# HNF4A DNA FP: change in binding of human HNF4 alpha to DNA; P41235; HNF4a-FITC DNA binding, fluorescence polarization, 1 h; activity change, % at 10 µM; hit rate 0.3% among 360,000; AID 1224865; in the data active means activity change above about 30%, passing the limit was not always enough;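 further: controls were the assay level and a saturating level of protein; the project sought stronger binding though the title names inhibitors; some compounds called inactive have numbers as strong as hits; positive values seem to mean higher polarization but the record does not say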
# Vif A3G: inhibitors of Vif binding to APOBEC3G peptide, primary screen, biochemical, TR-FRET, GST-Vif 1-94, biotin-A3G peptide, dose response retest (AID 1117319); inhibition, %, or IC50 in µM where a hit was titrated; hit rate 0.57% among 260,000; TR-FRET GST-Vif / biotin-A3G peptide binding; higher % means a stronger effect; test concentration not given here; strong numbers were not always called active;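 active means above the screen mean plus three standard deviations and confirmed in dose response; inconclusive means results disagree or hit not tested in dose response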;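 further: Vif residues 1-94 fused to GST binding biotinylated APOBEC3G peptide 110-148; 0% = full assay without inhibitor and 100% = GST in place of GST-Vif; retest series ran down from 100 µM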
# AF4-AF9 inh: MLL-AF4/AF9 protein interaction inhibition | P42568 | AlphaScreen, biotin-AF4 peptide binding to FLAG-AF9 | inhibition, % at 10 µM | hit rate 0.47% among 350,000;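 active means every replicate reaching a set inhibition limit, whatever the replicate mean, cut at about 25% in these data; inconclusive means mean inhibition reaches that limit but some replicates miss it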;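 further: 0% = plate neutral control median and 100% = total signal loss; the record names both 10 and 1 µM as test concentration; the first replicate is given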
# Target sequence (P42568 whole entry, looked up): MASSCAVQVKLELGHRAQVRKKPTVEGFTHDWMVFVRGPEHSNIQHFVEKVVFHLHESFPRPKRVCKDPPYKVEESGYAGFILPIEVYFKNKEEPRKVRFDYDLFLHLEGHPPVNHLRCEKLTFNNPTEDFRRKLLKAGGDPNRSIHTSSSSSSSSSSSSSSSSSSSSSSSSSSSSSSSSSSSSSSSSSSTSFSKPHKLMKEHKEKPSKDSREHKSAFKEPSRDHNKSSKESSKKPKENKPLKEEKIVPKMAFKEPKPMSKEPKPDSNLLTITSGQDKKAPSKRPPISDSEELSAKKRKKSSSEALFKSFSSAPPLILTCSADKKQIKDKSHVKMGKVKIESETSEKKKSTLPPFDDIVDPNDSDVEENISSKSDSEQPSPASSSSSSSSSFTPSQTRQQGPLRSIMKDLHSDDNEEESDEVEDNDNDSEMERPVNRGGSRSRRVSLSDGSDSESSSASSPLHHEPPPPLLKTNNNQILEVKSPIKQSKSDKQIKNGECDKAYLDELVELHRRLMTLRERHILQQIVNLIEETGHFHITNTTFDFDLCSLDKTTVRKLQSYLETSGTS
# UCH37 inh: human UCH37 deubiquitinating enzyme inhibition; Q9Y5K5; purified proteasome/UCH37, Ub-AMC cleavage fluorescence; inhibition, % (concentration not given with the values); hit rate 0.33% among 330,000; AID 588478;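 active means mean of two replicates above 20%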;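 further: 0% = compound-free wells with enzyme and 100% = wells lacking proteasome; stock transfer was 100 nL into about 20 µL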
# Target sequence (Q9Y5K5 whole entry, looked up): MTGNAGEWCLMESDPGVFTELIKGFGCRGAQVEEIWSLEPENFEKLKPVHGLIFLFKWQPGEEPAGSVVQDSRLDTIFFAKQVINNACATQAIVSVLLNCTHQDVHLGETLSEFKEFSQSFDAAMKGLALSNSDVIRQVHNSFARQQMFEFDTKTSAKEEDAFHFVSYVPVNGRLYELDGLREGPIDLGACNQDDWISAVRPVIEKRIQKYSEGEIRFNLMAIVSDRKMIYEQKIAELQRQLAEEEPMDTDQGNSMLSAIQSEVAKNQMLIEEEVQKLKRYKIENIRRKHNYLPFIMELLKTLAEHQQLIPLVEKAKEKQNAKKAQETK
#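 system = Proteasome-associated human UCH37 deubiquitinase | amount = 0.15 nM proteasome as dispensed | medium = pH 7.4 Tris-HCl (50 mM) with ovalbumin, ATP-MgCl2, DTT | incubation = 30 min preincubation with enzyme, 25 min cleavage at room temperature | detection = AMC fluorescence 355/460 nm | read-out basis = percent inhibition | controls = no-proteasome and no-compound wells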
# * hit, by the source's call; i = inactive; ? = inconclusive; / = not tested or not shown; & = joins results of further samples.
SMILES,FGF22 binding,E coli growth,RanGTP-Impb inh,HNF4A DNA FP,Vif A3G,AF4-AF9 inh,UCH37 inh
Clc1nc(NCc2cccnc2)nc(N2CCOCC2)n1,/,0.708,-0.8,2.6,31.2%,/,0.1
Cc1ccc(CSc2ncn(-c3ccccc3)n2)cc1,/,0.657,8.2,-2.2,22.1%,/,-0.7
CC[N+](CC)(CC)CCCCOc1ccc2c(c1)C(=O)c1cc(OCCCC[N+](CC)(CC)CC)ccc1-2,i,0.586,7.6,2.2,?,0.3,2.7
COc1ccc(C2C3=C(OC(C)=O)c4ccccc4C3=Nc3c2c(=O)n(C)c(=O)n3C)cc1 (stereo unspecified),/,0.748,1.4,1.5,-3.1%&-9.3%,1.0,-0.7
O=C(O)c1ccc2c(c1)ncn2C1CCCCC1,/,0.661,7.8,-1.6,-7.3%,/,3.3
O=C(COC(=O)c1ccc(NS(=O)(=O)c2cccs2)cc1O)Nc1ccc(F)cc1,i,0.676,1.1,-0.9,2.2%,-41.5,0.2
O=C(COC(=O)c1cccc2ccccc12)Nc1ncc(C(F)(F)F)cc1Cl,/,0.726,5.2,2.4,-11.7%,/,-2.4
COc1ccc(N2CCN(C(c3cccs3)C(C)NS(=O)(=O)c3ccccc3)CC2)cc1 (stereo unspecified),/,/,?,1.2,2.1%,/,/
CC1(C(=O)NCc2ccccc2)CCC(=O)N1C1CCN(Cc2ccccc2)CC1 (stereo unspecified),i,/,/,-1.6,/,-2.8,/
COc1ccc(NC(=O)CCC(=O)Nc2nnc(C3CCCCC3)s2)cc1,i,0.657,5.1,1.3,-0.1%,2.0,1.1
COc1cc(CN2CCCCCC2)c([N+](=O)[O-])cc1OC,i,0.655,?,1.6,/,2.3,5.8
C/C(=N\NC(=O)COc1ccc(C(C)(C)C)cc1)c1ccc2c(c1)OCCO2,i,/,0.5,-4.2,5.2%,3.5,/
O=C(c1ccco1)N1CCN(c2nc3ccccc3c(=O)n2-c2ccccc2)CC1,/,0.654,8.8,6.5,9.4%,/,-5.4
COC(=O)c1c(C)oc2c1cc(NS(=O)(=O)c1cccs1)c1ccccc12,/,0.731,-1.5,3.0,4.7%,/,2.6
COc1ccc(CCNC(=O)c2cc(S(=O)(=O)N3CCCC3)cn2C)cc1OC,i,0.707,1.3,1.4,/,0.1,1.3
O=C(COC(=O)CNC(=O)c1ccc(F)cc1)NC1CCCc2ccccc21 (stereo unspecified),i,0.683,/,7.3,/,-5.5,4.3
O=C(COc1ccccc1)NC(Cc1c[nH]c2ccccc12)C(=O)O (stereo unspecified),/,0.71,4.4,-1.3,7.8%,/,2.1
CCOc1nc(-c2ccccc2)ccc1-c1noc(-c2cccs2)n1,/,0.726,0.6,7.3,-3.4%,/,-38.8
Cc1nn(C)c(C)c1NC(=O)CCCSc1nc(-c2ccco2)cc(C(F)(F)F)n1,/,0.786,1.2,1.2,/,/,2.0
CCN1CCN(Cc2ccc(NC(=O)c3ccc(C)c(NC(=O)c4nccnc4N)c3)cc2C(F)(F)F)CC1,i,0.676,-1.8,-0.1,10.2%,17.1,-1.9
CC(C)CSc1nc2c(c(=O)[nH]c(=O)n2C)n1CCc1ccccc1,/,0.799,2.0,-0.7,-1.8%,/,4.7
O=C(NCCCN1CCN(C2CCCCC2)CC1)Nc1ccccc1C(F)(F)F,/,0.722,2.2,-2.0,11.6%,/,0.7
COc1ccc(C(=O)OCc2cc3cccc(C)c3[nH]c2=O)cc1,/,0.736,3.0,-0.9,7.1%,/,2.0
O/N=C1\CCCc2ccccc21,i,/,5.2,-1.1,0.4%,-1.2,/
CCCCCCSc1ccc(-c2nc3ccc(Cl)cn3c2NC2CCCCC2)cc1,i,0.721,/,13.4,/,/,-127.4
# Following part:
SMILES,FGF22 binding,E coli growth,RanGTP-Impb inh,HNF4A DNA FP,Vif A3G,AF4-AF9 inh,UCH37 inh
O=C(Nc1ccccc1)Nc1cccc(Cl)c1,/,0.503*,-2.3,-2.6,1.4%,/,6.4
CCn1c(SCC(=O)Nc2oc(-c3ccccc3)c(-c3ccccc3)c2C#N)nnc1-c1cc(OC)cc(OC)c1,i,0.755,-1.4,13.7,-10.2%,-58.7,1.1
Cc1ccccc1C(=O)c1ccccc1C(=O)c1ccccc1,i,0.662,/,2.4,-2.2%,-0.9,0.1
Cc1ccccc1N(C(=O)c1snc(C(N)=O)c1N)C(C(=O)NCC1CCCO1)c1ccc(N(C)C)cc1 (stereo unspecified),i,0.677,1.8,6.7,/,-5.8,-3.6
COc1ccc(C#Cc2c(-c3ccsc3)oc3ccc(-c4cc(OC)c(OC)c(OC)c4)cc23)cc1,i,0.668,-2.0,2.9,/,/,-22.7
CCOc1ccc(N(CC(=O)Nc2ccc(OC)cc2OC)S(=O)(=O)c2c(C)[nH]c(=O)[nH]c2=O)cc1,i,0.645,4.6,2.0,-1.2%,6.8,4.9
COc1cc(NS(=O)(=O)c2ccc(NC(=S)Nc3ccccc3)cc2)nc(OC)n1,i,0.698,2.6,3.7,-3.3%,0.1,0.0
CCNC(=O)C1(C)CCN(C(=O)c2ccc(C(=O)OC)cc2)C1 (stereo unspecified),i,/,/,0.5,/,-4.1,/
O=C(Nc1ccccc1F)n1ncc2cc(Cl)ccc21,i,0.667,4.9,-3.3,-4.7%,-0.2,-0.9
COc1ccc(OC)c(N(CCN2C(=O)c3ccccc3C2=O)C(=O)CCl)c1,i,/,/,-0.4,0.3%,-2.7,/
Cc1ccc(C(=O)Nc2cccc3ncccc23)cc1[N+](=O)[O-],i,0.699,-5.8,0.7,4.6%,-2.1,2.7
O=C(NC1CCCC1)C(c1c(F)cccc1Cl)N(C(=O)c1csnn1)C1CC1 (stereo unspecified),i,0.639,?,1.8,/,-1.9,5.0
Cc1cc(C)cc(NC(=S)Nc2ccccn2)c1,i,0.682,2.5,-1.4,4.3%,2.0,0.4
CCC(C)N1CC23C=CC(O2)C(C(=O)OCc2ccccc2)C3C1=O (stereo unspecified),/,0.727,-1.8,4.4,17.9%,/,1.2
COc1ccc(-c2nnc(Nc3ccc(CC(N)=O)cc3)c3ccccc23)cc1,/,0.699,-3.0,6.2,-9.9%,/,2.0
O=C(CCCCCn1c(=S)[nH]c2cc3c(cc2c1=O)OCO3)N1CCN(C(=O)c2ccco2)CC1,/,0.719,0.0,-1.6,-3.8%,/,1.6
CC(C)OP(=O)(OC(C)C)C(Nc1ccccc1)c1ccc2c(c1)OCO2 (stereo unspecified),/,0.626,2.5,2.2,12.9%,/,2.1
CS(=O)(=O)c1ccc(-c2csc(C(O)c3cccc(Cl)c3)n2)cc1 (stereo unspecified),i,/,/,-2.7,/,-0.6,/
CCc1c(C)nc(SCC(=O)N2CCCCC2)[nH]c1=O,i,0.698,-4.3,-0.8,/,-1.1,5.8
CC1(C)C2CCC(CN)C1C2 (stereo unspecified),i,/,/,1.4,-4.3%,-4.8,/
COc1ccc(OCC(O)CNC(C)c2ccccc2)cc1 (stereo unspecified),i,0.607,4.1,-1.7,-5.8%,0.9,1.5
CCOC(=O)c1cc2c(=O)n3cccc(C)c3nc2n(Cc2ccco2)c1=NC(=O)c1ccccc1,i,0.724,105.7*,-8.2&2.6,-1.6%&32.1%,-1.7,-158.1
CCOc1ccc2oc(C(=O)Nc3ccc4c(c3)OCO4)c(C)c2c1,i,0.65,-1.3,2.5,/,-0.6,-3.9
COc1ccc(NC(=O)C2(C)CCN2CCc2ccccc2)cc1OC (stereo unspecified),i,/,/,1.8,/,-0.5,/
COc1cc(C=O)cc(Br)c1OCC(N)=O,i,0.712,2.4,0.3,8.3%,3.0,2.4
# The listing continues.
SMILES,FGF22 binding,E coli growth,RanGTP-Impb inh,HNF4A DNA FP,Vif A3G,AF4-AF9 inh,UCH37 inh
COc1ccc(OC)c(S(=O)(=O)Nc2ccc3[nH]c(=O)[nH]c3c2)c1,i,0.678,0.6,-3.3,1.1%,2.9,5.1
O=C(O)c1cc(Br)ccc1NS(=O)(=O)c1cccc2nsnc12,i,0.623,-1.3,-1.5,/,-3.6,6.0
Cn1c(CNS(=O)(=O)c2ccc(Cl)cc2)cc(=O)n(C)c1=O,i,0.651,2.4,4.5,/,-0.5,2.2
CC(C)NC(=O)OCc1c(COC(=O)NC(C)C)c([N+](=O)[O-])n2c1CCC2,i,/,/,3.8,/,-3.5,/
COC(=O)c1c(C(=O)c2ccc(Br)cc2)n(C)c2ccccc12,i,0.632,/,-2.9,18.0%,-4.3,1.7
COc1ccc(CCNC(=O)C2CCN(S(=O)(=O)c3cccc4cccnc34)CC2)cc1OC,/,0.683,0.1,-2.6,/,/,3.2
O=C(CCCC(=O)NC1CCCC1)NC1CCCC1,/,0.685,-2.9,-0.9,-2.2%,/,0.1
CS/C(=N\S(=O)(=O)c1cccs1)Nc1cccc(Cl)c1C,i,0.711,-1.2,3.1,/,-1.1,2.8
c1ccc(-c2csc(=Nc3cccnc3)n2CC2CCCO2)cc1 (stereo unspecified),/,0.661,-1.8,-3.3,14.6%,/,3.3
COc1cc(NC(=S)N2CCN(c3ccccn3)CC2)cc(OC)c1OC,i,0.684,-2.5,-0.9,0.1%,1.7,0.3
COc1ccc(Cn2c(CO)cnc2SCC(=O)Nc2cc(C)on2)cc1,i,0.682,-1.1,-2.0,/,-3.7,2.6
O=C(O)CCC(=O)c1ccc2c(c1)OCCO2,i,0.74,-2.1,6.2,10.3%,-2.0,2.1
CN(CC1CCCN(CCc2ccc(Cl)cc2)C1)C(=O)c1ccoc1 (stereo unspecified),i,0.664,-1.6,0.7,/,1.7,0.7
Cc1ccc(NC(=S)Nc2ccc3nc(-c4ccccn4)c(-c4ccccn4)nc3c2)cc1C,/,0.688,/,-15.6,/,/,-0.3
O=C1c2ccccc2C(Nc2ccc(Cl)cn2)N1c1cccnc1 (stereo unspecified),i,0.761,8.9,-1.2,3.4%,-7.1,6.9
O=C(CCc1c[nH]c2ccccc12)N=Nc1c(O)[nH]c2ccccc12,i,0.692,-0.6,-0.6,0.4%,0.8,5.3
COC(=O)c1nn(-c2ccccc2)c(Cl)c1/C=N/OCc1ccc(Cl)cc1Cl,/,/,1.1,-0.1,1.4%,/,/
CC(C)Nc1nc(Nc2ccc(C(N)=O)cc2)c2sccc2n1,i,/,/,-0.5,/,-1.3,/
CCC1(c2ccccc2)NC(=O)N(CC(=O)Nc2ccccc2C(=O)NC2CC2)C1=O (stereo unspecified),i,0.729,0.4,4.1,0.7%,-0.4,-3.2
Cn1nc([N+](=O)[O-])nc1Oc1ccc(C(C)(C)C)cc1,i,0.665,1.1,0.7,7.3%,1.3,3.9
Cc1nn(CC(=O)N(CC(C)C)C2CCS(=O)(=O)C2)c(C)c1[N+](=O)[O-] (stereo unspecified),i,0.691,/,-1.9,-3.5%,0.4,0.2
Clc1cncc(Cl)c1NNc1c2ccccc2nc2ccccc12,i,0.734,22.9*,-1.7,/,10.4,2.8
O=C(Cn1ccc2ccccc2c1=O)NCCC(=O)NC1CCN(Cc2ccccc2)CC1,/,0.696,4.2,-0.9,-4.9%,/,-1.4
CC12CC(c3ccccc3O1)C(C(=O)N1CCOCC1)C(=O)N2 (stereo unspecified),i,0.691,-0.3,2.4,3.8%,-2.3,1.0
COc1ccc(CCNC(=O)/C=C/c2ccco2)cc1OC,i,0.662,-5.0,-7.1,/,-3.2,1.0

# The list is partial, so the mix of outcomes need not match the whole.
